# Menin-MLL FL inh – menin-MLL binding inhibition, fluorescein peptide | Fluorescence polarization, fluorescein-MLL peptide displacement from menin | FP activity change, % at 61.4 µM | 290,000 tested, under 10 active | AID 1766; inconclusive = falling polarisation curve, or a change in total fluorescence; inactive = total fluorescence flat and polarisation flat or rising; no compound was filed as active; the % refers to the polarisation; negative = inhibition;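 note: % of control where 0% means no effect; inhibitors lower the polarisation; unlabelled MLL peptide was the positive control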
# Sfp PPTase inh – blocks B. subtilis Sfp PPTase activity | Q9F4F7 | Biochemical Sfp PPTase activity, qHTS | Potency, µM, inactives show max response, negative = inhibition, actives largely listed as inhibitors | 310,000 compounds, 3.5% hits; active = well fitted inhibition curve with a large enough effect; inconclusive = small, poorly fitted or top-dose-only effect, or another doubt; inactive = no such curve, though single readings can be large or run the other way;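 note: the enzyme is Sfp with the accession as filed and its product quenches rhodamine fluorescence; potency is the fitted concentration of half-maximal effect; 0% = enzyme reaction without inhibitor and -100% = no enzyme wells; top concentration of the series not given in the record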
#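 Fluorescence-quenching assay: 15 nM Sfp-PPTase preincubated 15 min at room temperature with compound, then 5 uM rhodamine-CoA and 12.5 uM BHQ-2-labelled YbbR peptide added. Fluorescence (ex 525/em 598 nm) read at start and after 30 min; difference gives rate.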
# gsp ag – agonists of gsp mutant (McCune-Albright syndrome); Potency, µM (highest dose often 76.9 µM), for inactives: at the top dose activation (cAMP increase), hits mostly activators; 340,000 compounds, 0.13% hits; gsp mutant cells, cAMP HTRF, 30 min; control for the full effect not named in the record; active = well fitted activation curve with a large enough effect; inconclusive = small, poorly fitted or top-dose-only effect, or another doubt; inactive = no such curve, though single readings can be large or run the other way; cell line not stated here;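 note: phosphodiesterase inhibitor Ro 20-1724 added with compounds to block cAMP breakdown; potency is the fitted concentration of half-maximal effect; nearly all actives have a fitted effect of over 60% in size; about a fifth of the inactives were tested at one dose only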
#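 Cells in DMEM/10% FBS with G418 were pretreated with compounds in DMSO plus […] (300 uM stock) for 30 min at 37C. cAMP was measured by HTRF (cAMP-d2 plus anti-cAMP antibody-K) after 30 min at room temperature.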
# gsp antagonist – gsp mutant antagonism | gsp-mutant cells, cAMP HTRF, 30 min; control for the full effect not named in the record | Potency, µM (doses to about 76.9 µM), without a hit: top-dose activity change, negative = inhibition, most hits filed as inhibitors | 340,000 compounds, 0.4% hits | AID 624288; active = falling curve of any shape with a large fitted effect; inconclusive = falling curve, mostly with a smaller effect; inactive = flat or rising curve; cell line not stated here;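 note: intracellular cAMP measured with PDE inhibitor Ro 20-1724 present during compound exposure; potency is the fitted concentration of half-maximal effect; % is set by controls: 0 for no effect and ±100 for the full control effect; nearly all actives have a fitted effect of over 65% in size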
#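 Measurement of cellular cAMP by homogeneous time-resolved fluorescence following a 30 min compound exposure at 37C. The PDE inhibitor […] was present throughout; the assay buffer was DPBS with 0.05% BSA and 0.005% Tween 20.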
# ClpP mod – qHTS Assay for Activators of ClpP | Potency, µM (highest dose often 57.5 µM), for the others: at the top dose activity change, negative = active | purified B. subtilis ClpP, FRET peptide cleavage, 20 min | ATP-dependent Clp protease proteolytic subunit (Bacillus subtilis (strain 168)), P80244 | 340,000 compounds, 1.9% hits; active = well fitted falling curve with a large enough effect; inconclusive = small, poorly fitted or top-dose-only effect; inactive = no such curve, though single readings can be large or run the other way; note: potency is the fitted concentration of half-maximal effect; the source files actives as falling curves though it sought activators and does not explain the sign; nearly all actives have a fitted effect of over 65% in size; many hits overshoot -100%
# Target sequence (P80244 whole entry, looked up): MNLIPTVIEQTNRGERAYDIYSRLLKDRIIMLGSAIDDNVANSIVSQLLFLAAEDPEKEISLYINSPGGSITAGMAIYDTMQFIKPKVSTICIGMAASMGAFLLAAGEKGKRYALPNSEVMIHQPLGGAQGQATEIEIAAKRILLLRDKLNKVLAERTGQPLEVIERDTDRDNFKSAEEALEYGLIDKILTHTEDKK
#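 Buffer: 100 mM Tris/HCl pH8, 100 mM KCl, 0.05% low protease BSA, 2.5% glycerol, 0.01% Tween-20. ClpP 10 microg/mL final; 20 min RT; delta FRET normalized to ADEP and DMSO controls.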
# CtBP-E1A blk – inhibitors of CtBP/E1A interaction. AlphaScreen GST-E1A/His-CtBP binding, 1536-well; hits give low values; control for the full effect not named in the record. activity change, % (test concentration not listed). 340,000 compounds, 0.49% hits; in the data active means activity change below about -65%; inconclusive means about -30% to -65%; inactive means above about -30%; note: % is set by controls: 0 for no effect and ±100 for the full control effect
#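 Homogeneous bead-based format: GST-tagged E1A captured on glutathione donor beads, His-tagged CtBP on nickel acceptor beads; compounds precede bead addition by 2 h at 37 °C.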
# TRPV1 PAM – human TRPV1 potentiation | Q8NER1 | potentiation, % at 8.33 µM | AID 540277 | TRPV1-expressing cells, Fluo-8 calcium influx, capsaicin EC20 potentiation; host cell line not named in the record; control for the full effect not named in the record | 320,000 compounds, 0.02% hits; active means potentiation above 80%; inconclusive means 30% to 80%; inactive means below 30%; note: 0% is about no effect
# Target sequence (Q8NER1 whole entry, looked up): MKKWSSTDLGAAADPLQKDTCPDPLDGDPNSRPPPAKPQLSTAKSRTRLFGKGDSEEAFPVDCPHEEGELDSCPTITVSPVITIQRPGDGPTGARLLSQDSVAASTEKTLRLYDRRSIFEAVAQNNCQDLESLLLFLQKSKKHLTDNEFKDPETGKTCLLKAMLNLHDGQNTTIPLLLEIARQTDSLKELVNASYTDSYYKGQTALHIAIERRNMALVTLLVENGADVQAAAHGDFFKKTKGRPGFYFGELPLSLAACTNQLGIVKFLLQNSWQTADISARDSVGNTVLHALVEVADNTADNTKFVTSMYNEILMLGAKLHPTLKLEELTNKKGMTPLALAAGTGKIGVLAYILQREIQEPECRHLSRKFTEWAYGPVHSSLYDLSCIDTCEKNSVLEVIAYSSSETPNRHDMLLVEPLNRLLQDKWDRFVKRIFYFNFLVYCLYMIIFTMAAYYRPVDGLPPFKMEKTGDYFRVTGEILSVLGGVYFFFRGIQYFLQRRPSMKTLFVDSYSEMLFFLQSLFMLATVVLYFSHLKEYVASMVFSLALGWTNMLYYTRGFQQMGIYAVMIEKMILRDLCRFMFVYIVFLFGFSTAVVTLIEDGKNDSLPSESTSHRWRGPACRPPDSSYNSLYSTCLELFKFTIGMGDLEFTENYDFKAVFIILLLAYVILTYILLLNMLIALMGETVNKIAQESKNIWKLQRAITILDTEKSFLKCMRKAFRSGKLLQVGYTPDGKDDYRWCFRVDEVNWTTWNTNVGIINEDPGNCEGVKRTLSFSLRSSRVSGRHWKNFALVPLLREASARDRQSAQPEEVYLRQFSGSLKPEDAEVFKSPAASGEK
#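 Cells expressing TRPV1 were dye-loaded with Fluo-8 and read kinetically: 10 s baseline, 3 min after compound (agonist portion), then 2 min after EC20 capsaicin (allosteric enhancer portion). Calcium-bound dye fluorescence at 480/520 nm.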
# Active calls of the source: *; ? = inconclusive; / = not tested or not shown; & = joins results of further samples; [ ] = remark or other dose. The order is random; 5.3% or so of the library scored in one or more.
1: COc1ccccc1N1CCN(C(=O)c2c(C)noc2C)CC1
2: O=C(COC(=O)c1ccccc1O)NC(=O)c1ccc(OC(F)F)cc1
3: COc1ccc(CCNC(=O)CSc2nnc(-c3ccccc3)o2)cc1OC
4: CCOCCCNC(=O)c1ccc(CS(=O)(=O)Cc2ccccc2F)o1
5: CCc1ccccc1NC(=O)c1cc(-c2ccc(F)cc2)on1
6: COC(=O)c1sccc1NC(=O)c1c(C)cc(=O)oc1C
7: CCOc1ccc(-n2c(SCC(=O)Nc3cc(C)on3)nc3c(c2=O)SCC3)cc1
8: CC(OC(=O)c1cccc(N(C)C)c1)C(=O)N1CCc2ccccc2C1 (stereo not drawn)

screen / no.	1	2	3	4	5	6	7	8
Menin-MLL FL inh	1.1	/	1.8	-0.6	-1.1	-9.7	1.7	/
Sfp PPTase inh	14%	/	13%	21%	19%	9%	-2%	/
gsp ag	-27%	36%	0%	?	?	-11%	3%	29%
gsp antagonist	0%	6%	-2%	2%	6%	4%	4%	-22%
ClpP mod	/	3.4%	-0.5%	0.9%	6.1%	-1.1%	/	-4.1%
CtBP-E1A blk	2	1	11	20	/	3	-7	-7
TRPV1 PAM	-1	-3	?	-4	11	16	13	/

9: O=C(c1ccco1)N1CCN(C(=O)C2CCN(S(=O)(=O)c3cccc4nsnc34)CC2)CC1
10: COc1ccc(CNC(=O)COC(=O)c2cccnc2Nc2cccc(C(F)(F)F)c2)cc1
11: CC1CCN(c2ccc(C(=O)NCc3ccco3)cc2[N+](=O)[O-])CC1
12: O=C(Nc1cnc2ccccc2c1)c1ccncc1
13: CCOC(=O)N1CCN(S(=O)(=O)c2ccc(C(=O)Nc3nc4c(s3)CC(C)CC4)cc2)CC1 (stereo not drawn)
14: CCc1cc(C)cc(OCCOc2ccccc2/C=N/NC(C)=O)c1
15: CC1(C)CC(=O)C2=C(C1)N(Cc1ccc(F)cc1)C(=O)C2(NC(=O)c1cccnc1)C(F)(F)F (stereo not drawn)
16: CC1(c2ccccc2Cl)NC(=O)N(CC(=O)Nc2ccccc2OC(F)F)C1=O (stereo not drawn)

screen / no.	9	10	11	12	13	14	15	16
Menin-MLL FL inh	/	2.2	5.7	-1.5	-0.6	-0.1	0.8	0.7
Sfp PPTase inh	/	2%	-6%	1%	21%	3%	24%	9%
gsp ag	-41%[inhibitor]	26%	9%	-4%	-3%	-22%	-9%	-40%[15.4 µM]
gsp antagonist	-10%	2%	-4%	-8%	3%	-5%	1%	?
ClpP mod	0.1%	-1.6%	-2.3%	1.2%	8.3%	-1.8%	0.9%	/
CtBP-E1A blk	0	6	-23	20	-11	/	-3	22
TRPV1 PAM	/	?	-16	?	0	?	-9	2

17: CCN(CC)CCOc1ccc(C=NNc2nc3c([nH]2)c(=O)n(C)c(=O)n3C)cc1
18: CN(C(=O)c1ccc(Cl)cc1)c1ccc(OCC(=O)Nc2cc(C(=O)O)ccc2Cl)cc1
19: CCOC(=O)N1CCN(CC(O)c2ccccc2)CC1 (stereo not drawn)
20: CC(=O)Nc1ccc2nc(CN3CCN(Cc4ccc(F)cc4)C(CCO)C3)ccc2c1 (stereo not drawn)
21: O=C(NC1CCSc2ccccc21)c1ccc(F)cc1 (stereo not drawn)
22: N/C(=N\OC(=O)c1ccc(Cl)cc1)c1ccccn1
23: O=S(=O)(CCS(=O)(=O)c1ccccc1)c1ccccc1
24: COc1ccc(S(N)(=O)=O)cc1C(=O)OCC(=O)N1CCCC(C)C1 (stereo not drawn)

screen / no.	17	18	19	20	21	22	23	24
Menin-MLL FL inh	/	/	-0.7	?	/	-3.2	/	/
Sfp PPTase inh	/	/	?	79µM*	14%	0%	/	/
gsp ag	21%	11%	0%	-18%	-24%	-3%	5%	-5%
gsp antagonist	?	-20%	2%	-2%	6%	7%	7%	12%
ClpP mod	/	2.1%	0.6%	?	-0.8%	-0.9%	/	-3.1%
CtBP-E1A blk	-5	7	/	-8	-1	3	2	/
TRPV1 PAM	/	/	9	4	-17	-23	/	/

25: Cc1ccc(S(=O)(=O)N2CCc3ccccc3C2)cc1
26: Cc1cc(C)cc(N(CC(=O)NCc2ccccc2Cl)S(=O)(=O)c2c(C)[nH]c(=O)[nH]c2=O)c1
27: Cc1c(NC2=NC(C)(C)Cc3ccccc32)c(=O)n(-c2ccccc2)n1C
28: O=C(CSc1nc(O)cc(=O)n1-c1ccccc1)Nc1ccc2c3c(cccc13)CC2
29: COc1ccccc1OCCNC(=O)c1cccs1
30: COc1ccc(CN(C)C(=O)c2ccc(OCC(=O)N3CCOCC3)c(OC)c2)cc1
31: CCc1c(O)nc(SCC(=O)Nc2ccccc2C)n(-c2ccc(C)cc2)c1=O
32: O=C(COc1ccc(C2SCCS2)cc1)Nc1ccc(Cl)cc1

screen / no.	25	26	27	28	29	30	31	32
Menin-MLL FL inh	3.2	/	2.8	3.5	-0.7	/	22	0.2
Sfp PPTase inh	2%	12%	-3%	-13%	20%	/	4%	10%
gsp ag	-4%	14%	2%	-16%[15.4 µM]	21%	-31%	-26%	0%
gsp antagonist	-2%	-19%	11%	7.1µM*	4%	-5%	-17%	9%
ClpP mod	-5.0%	-0.1%&-0.8%	-2.0%	/	-1.5%	2.5%	-0.2%	/
CtBP-E1A blk	/	-4	9	0	0	10	-4	1
TRPV1 PAM	-18	4	-6	2	-3	-4	-10	1

33: CC(C)c1ccc(S(=O)(=O)N2CCC(C(=O)NCc3ccco3)CC2)cc1
34: Cc1c(OCC(=O)N2C[C@H]3C[C@@H](C2)c2cccc(=O)n2C3)ccc2c3c(c(=O)oc12)CCCC3
35: c1csc(C2CCCN2c2nc3nonc3nc2NC2CC2)n1 (stereo not drawn)
36: COc1ccc(C2=NOC(C(=O)NCc3ccccn3)C2)cc1OC (stereo not drawn)
37: COc1ccc(CC(=O)N2CCN=C2SCc2ccc([N+](=O)[O-])cc2)cc1
38: CCCc1cc(C(=O)N2CCN(S(=O)(=O)c3ccc(OC)c(OC)c3)CC2)cs1
39: CC(C)c1ccc(NC(=O)Cn2c(=O)oc3ccccc32)cc1
40: CSc1ccccc1C(=O)NCc1ccc(S(N)(=O)=O)cc1

screen / no.	33	34	35	36	37	38	39	40
Menin-MLL FL inh	/	-2.8	-1.9	-1.7	-4.2	3.9	-18	1.8
Sfp PPTase inh	/	8%	0%	5%	5%	10%	4%	-6%
gsp ag	-18%	/	-5%[15.4 µM]	-11%	25%	?	6%	-6%
gsp antagonist	4%	-8%	9%	18%	0%	?	-4%	-1%
ClpP mod	-1.8%	4.5%	/	1.5%	0.6%	-0.8%	-3.1%	-1.8%
CtBP-E1A blk	-8	?	-1	-1	-23	-1	/	-1
TRPV1 PAM	-16	-4	3	5	6	-6	-16	4

41: Cc1ccc(N2CCN(S(=O)(=O)N3CCCCC3)CC2)c(C)c1
42: Cn1c(=O)[nH]c(=O)c2c1nc(N1CCCCC1)n2CCOc1ccccc1
43: COc1cc(N2C(=O)c3ccccc3C2=O)c(Cl)cc1C(=O)OCC(=O)N1CCOCC1
44: O=C1CN(c2cc(Cl)cc(Cl)c2)C(=O)CN1/N=C/c1cccnc1
45: CCOC(=O)c1c(NC(=O)C2=C(C)NC(=S)NC2c2ccc(F)cc2)sc(C)c1C (stereo not drawn)
46: CCN(CC(=O)Nc1ccc([N+](=O)[O-])cc1OC)CC(=O)NC(C)(C)C
47: COC(=O)c1ccc(CNC(=O)COC(=O)c2ccccc2-c2ccccc2)cc1
48: CCCCN(C(=O)CSc1nc2ccccc2n1CC)C1CCS(=O)(=O)C1 (stereo not drawn)

screen / no.	41	42	43	44	45	46	47	48
Menin-MLL FL inh	-1.3	3.7	1.2	-2.3	7.4	1.9	/	/
Sfp PPTase inh	-12%	-2%	8%	8%	-11%	?	/	/
gsp ag	0%[15.4 µM]	0%	1%	1%[15.4 µM]	26%	10%[15.4 µM]	6%	-5%
gsp antagonist	-9%	1%	1%	-4%	?	-12%	-10%	-19%
ClpP mod	/	-26%	-1.4%	/	-24%	-0.2%	-4.0%	1.7%
CtBP-E1A blk	-9	1	/	-1	2	-2	5	4
TRPV1 PAM	-13	7	13	-6	-7	-10	?	-11

49: CCOC(=O)c1c(NC(=O)COc2ccccc2C#N)sc2c1CC(C)(C)NC2(C)C
50: CN(C)CCOC(=O)/C(=C/c1cn(C)c2ccccc12)NC(=O)c1ccccc1
51: NS(=O)(=O)c1ccc(CCNC(=O)c2cc(-c3ccc(Br)cc3)nc3ccccc23)cc1
52: COc1ccc(N2CCN(C(=O)COC(=O)CSc3ccccc3)CC2)cc1

screen / no.	49	50	51	52
Menin-MLL FL inh	/	13	1.6	/
Sfp PPTase inh	4%	8%	-5%	/
gsp ag	29%	21%[15.4 µM]	?	26%[15.4 µM]
gsp antagonist	0%	-7%	?	0%
ClpP mod	30%	9.6%	12%	/
CtBP-E1A blk	0	-7	/	-9
TRPV1 PAM	?	/	-20	-4

# 4 of these compounds in a different format.
[51] NS(=O)(=O)c1ccc(CCNC(=O)c2cc(-c3ccc(Br)cc3)nc3ccccc23)cc1
  Menin-MLL FL inh = 1.6	Sfp PPTase inh = -5%	gsp ag = ?	gsp antagonist = ?	ClpP mod = 12%	CtBP-E1A blk = /	TRPV1 PAM = -20
[52] COc1ccc(N2CCN(C(=O)COC(=O)CSc3ccccc3)CC2)cc1
  Menin-MLL FL inh = /	Sfp PPTase inh = /	gsp ag = 26%[15.4 µM]	gsp antagonist = 0%	ClpP mod = /	CtBP-E1A blk = -9	TRPV1 PAM = -4
[50] CN(C)CCOC(=O)/C(=C/c1cn(C)c2ccccc12)NC(=O)c1ccccc1
  Menin-MLL FL inh = 13	Sfp PPTase inh = 8%	gsp ag = 21%[15.4 µM]	gsp antagonist = -7%	ClpP mod = 9.6%	CtBP-E1A blk = -7	TRPV1 PAM = /
[49] CCOC(=O)c1c(NC(=O)COc2ccccc2C#N)sc2c1CC(C)(C)NC2(C)C
  Menin-MLL FL inh = /	Sfp PPTase inh = 4%	gsp ag = 29%	gsp antagonist = 0%	ClpP mod = 30%	CtBP-E1A blk = 0	TRPV1 PAM = ?

# From PubChem BioAssay
